Vif-A3F inh – qHTS for Inhibitors of Vif-A3F Interactions: qHTS; HeLa A3F-eYFP + Vif (tagged APOBEC3F with the HIV-1 protein that degrades it), YFP fluorescence increase; Potency, µM (series often up to 46.1 µM), without a hit: top-dose activity, negative = active; actives 0.2% (n = 390,000); also: potency is read from the fitted curve at half-maximal effect; % of control where 0% means no effect; nearly all actives have a fitted effect of over 65% in size
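HeLa cells stably expressing A3F-eYFP plus Vif, plated and incubated overnight at 37 deg C, then exposed to compounds overnight at 37 deg C. Blocked degradation read as raised yellow fluorescence (Ex 488/Em 500-530).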
GRP78 ERSR act – qHTS for Inducers of the Endoplasmic Reticulum Stress Response (ERSR) in Human Glioma: qHTS | actives 0.02% (n = 420,000) | Potency, µM, without a hit: at the highest dose activation, most hits filed as activators | AID 602332, 2012 | U87-MG GRP78 promoter luciferase reporter, 16 h; also: potency is read from the fitted curve at half-maximal effect; series mostly up to about 76 µM; % of control where 0% means no effect; nearly all actives have a fitted effect of over 35% in size
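Stably transfected U87-MG glioma cells carrying a GRP78-based luciferase sensor; 16 h compound incubation. Luminescence end-point read 10 min after Bright-Glo addition at room temperature.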
Vif-A3G inh – qHTS for Inhibitors of Vif-A3G Interactions: qHTS | DNA dC->dU-editing enzyme APOBEC-3G (Homo sapiens), Q9HC16 | HeLa A3G-eYFP + Vif (tagged APOBEC3G with the HIV-1 protein that degrades it), YFP fluorescence, overnight | Potency, µM (top dose mostly 46.1 µM), for the others: top-dose activity, negative = active, most hits filed as inhibitors | actives 0.076% (n = 410,000);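 also: potency is read from the fitted curve at half-maximal effect; % is scaled to controls: 0 for no effect and ±100 for the full control effect; nearly all actives have a fitted effect of over 60% in size; hits raise eYFP signal because A3G escapes Vif-driven loss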
Target sequence (Q9HC16 whole entry, looked up): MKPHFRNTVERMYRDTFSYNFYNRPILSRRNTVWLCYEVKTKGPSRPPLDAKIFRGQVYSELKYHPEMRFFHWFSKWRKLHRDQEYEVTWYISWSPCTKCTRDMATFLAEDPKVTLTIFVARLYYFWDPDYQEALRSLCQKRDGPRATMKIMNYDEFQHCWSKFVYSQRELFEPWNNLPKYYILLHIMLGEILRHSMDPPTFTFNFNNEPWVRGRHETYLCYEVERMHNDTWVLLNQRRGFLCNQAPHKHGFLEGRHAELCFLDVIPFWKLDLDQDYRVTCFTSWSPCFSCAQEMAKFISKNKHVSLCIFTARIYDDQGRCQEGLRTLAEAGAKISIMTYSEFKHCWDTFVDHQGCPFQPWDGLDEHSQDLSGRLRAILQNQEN
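HeLa cells stably expressing Vif and C-terminally eYFP-tagged A3G, seeded overnight at 37 deg C, then exposed to compound by pintool overnight at 37 deg C. Rise in yellow fluorescence (Ex 488/Em 500-530, Acumen) marks blocked Vif-driven A3G degradation.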
IDH1 R132H inh – qHTS for Inhibitors of mutant isocitrate dehydrogenase 1 (IDH1): qHTS | Isocitrate dehydrogenase [NADP] cytoplasmic (Homo sapiens), O75874 | Potency, µM (highest dose often 76.6 µM), for inactives: top-dose activity change, negative = inhibition, actives largely listed as inhibitors | actives 0.093% (n = 390,000) | IDH1-R132H enzyme, NADPH consumption, diaphorase/resazurin fluorescence; also: potency is read from the fitted curve at half-maximal effect; % is scaled to controls: 0 for no effect and ±100 for the full control effect; nearly all actives have a fitted effect of over 65% in size
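IDH1-R132H (0.5 ug/mL) preincubated 30 min with compound, then NADPH (0.016 mM) and alpha-KG (2 mM) added; 80 min at RT, pH 7.5. Remaining NADPH coupled via diaphorase/resazurin to fluorescence (540/590 nm); concentration-response curves normalized to no-enzyme control.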
LDHA inh – qHTS assay for inhibitors of human lactate dehydrogenase. L-lactate dehydrogenase A chain (Homo sapiens), P00338. purified LDHA, NADH/diaphorase-resazurin fluorescence; stronger effect = lower value. actives 0.15% (n = 480,000). activity change, % (values are at about 110 or 230 µM); in the data active = activity change below about -30%; inconclusive = mostly about -25% to -30%;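 also: plate controls were DMSO wells for no effect and wells without enzyme for full effect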
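LDH5 2 nM; NADH 0.06 mM, pyruvate 0.2 mM; 200 mM Tris pH 7.4, EDTA, Tween-20; 5 min RT. Detection: diaphorase 0.133 mg/mL + resazurin 37 µM, fluorescence ex540/em590 at 0 and 20 min; normalized to enzyme-free and DMSO wells.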
rTrxR1 inhibitor – qHTS Assay for Inhibitors of Mammalian Selenoprotein Thioredoxin Reductase 1 (TrxR1): qHTS | Potency, µM (series often up to 114 µM), for the others: at the highest dose activity change, negative = inhibition, actives largely listed as inhibitors | actives 1% (n = 390,000) | recombinant rTrxR1, NADPH fluorescence consumption, selenite substrate | AID 588453, 2011; also: potency is read from the fitted curve at half-maximal effect; % is scaled to controls: 0 for no effect and ±100 for the full control effect; nearly all actives have a fitted effect of over 65% in size
Target sequence (O89049 whole entry, looked up): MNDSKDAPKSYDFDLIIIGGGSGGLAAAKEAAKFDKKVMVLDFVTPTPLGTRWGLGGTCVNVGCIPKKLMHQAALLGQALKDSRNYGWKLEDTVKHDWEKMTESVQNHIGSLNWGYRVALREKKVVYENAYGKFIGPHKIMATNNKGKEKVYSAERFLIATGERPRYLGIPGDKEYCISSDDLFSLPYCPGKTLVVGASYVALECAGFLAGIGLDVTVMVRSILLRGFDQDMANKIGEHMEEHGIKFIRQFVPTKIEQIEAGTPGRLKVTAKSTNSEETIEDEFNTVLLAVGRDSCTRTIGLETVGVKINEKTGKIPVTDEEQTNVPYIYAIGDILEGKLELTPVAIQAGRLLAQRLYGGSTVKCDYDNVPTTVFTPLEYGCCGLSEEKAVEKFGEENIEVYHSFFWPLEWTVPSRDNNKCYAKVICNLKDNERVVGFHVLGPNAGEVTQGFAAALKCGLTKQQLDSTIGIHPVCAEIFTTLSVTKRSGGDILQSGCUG
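Rat TrxR1 (90 nM in the dispensed reagent) was pre-reduced with 400 uM NADPH for 5 min at room temperature, then incubated with compound for 15 min. After 400 uM selenite was added, NADPH fluorescence (Ex 340/Em 450 nm) was followed for 8 min.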
RGS4 inhibitor – Inhibitors of Regulator of G Protein Signaling (RGS) 4: qHTS; Regulator of G-protein signaling 4 (Homo sapiens), P49798; Transcreener GDP fluorescence polarization, RGS4-accelerated GTP hydrolysis; Potency, µM (highest dose often 114 µM), without a hit: at the highest dose activity change, negative = inhibition, hits mostly inhibitors; actives 0.039% (n = 390,000); AID 504845, 2011; also: potency is read from the fitted curve at half-maximal effect; % is scaled to controls: 0 for no effect and ±100 for the full control effect; nearly all actives have a fitted effect of over 75% in size; some results filed as inactive show a strong effect at the top dose
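MLSMR compounds (23 nl, pin-transferred) preincubated 10 min at room temperature with a 500nM (2x) first reagent, then RGS4 at 900nM (2x) plus Transcreener GDP mix added; fluorescence polarization (620/688 nm) read before and after 90 min at 30 °C.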
TrxR1 substrate – qHTS Assay for Substrates of Mammalian Selenoprotein Thioredoxin Reductase 1 (TrxR1): qHTS. Thioredoxin reductase 1, cytoplasmic (Rattus norvegicus), O89049. purified TrxR1 substrate turnover, NADPH consumption readout. Potency, µM (top dose mostly 114 µM), for inactives: at the highest dose activity change, negative = substrate turnover. actives 0.01% (n = 390,000). AID 588456, 2011; also: potency is read from the fitted curve at half-maximal effect; % is scaled to controls: 0 for no effect and ±100 for the full control effect; nearly all actives have a fitted effect of over 50% in size
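Rat TrxR1, dispensed at 90 nM, was prereduced with 400 uM NADPH (final) for 5 min at ~22 deg C, then incubated with compound 15 min before 400 uM selenite. A first-read NADPH fluorescence drop versus no-compound background flagged substrates.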
* = called active by the depositor; ? = inconclusive; & = joins results of further samples; [ ] = remark or other dose. Unless noted, calls follow the shape of the dose curve; as a rule, active = well fitted curve in the direction sought with a large enough effect; inconclusive = small, poorly fitted or top-dose-only effect, or another doubt; inactive = no such curve, though single readings can be large; an effect the other way counts as inactive or inconclusive.

SMILES	Vif-A3F inh	GRP78 ERSR act	Vif-A3G inh	IDH1 R132H inh	LDHA inh	rTrxR1 inhibitor	RGS4 inhibitor	TrxR1 substrate
CC1=CC(c2ccc(Cl)cc2)n2nc(NC(=O)c3ccccc3)nc2N1 (stereo not given)	8%	2%	-5%	1%	-1	8%	4%	24%
CC(=O)c1cc(C#N)c(N2CCCC2)nc1C	-27%	-5%	-4%	1%	-1	16%[57.1 µM]	?	4%[57.1 µM]
COCCn1c(SCc2cnc(-c3ccccc3)s2)nnc1-c1ccncc1	-3%	0%	4%	0%	-2	-17%	3%[11.4 µM]	9%[57.1 µM]
CCOc1ccc(/C=C/c2nc(C#N)c(N3CCC(C)CC3)o2)cc1	-2%	-2%	-18%	15%	-24&5	23%	-11%	39%[activator]
COc1ccc(OC)c(NC(=O)c2cc3c(=O)n4ccccc4nc3n2C)c1	4%	-7%	3%	-7%	-8	9%	19%	2%
CCN1/C(=C/C(=O)c2ccco2)Sc2ccccc21	-23%	-2%	?	16%	5	?	-48%	-1%
Oc1ccc(C(c2nnnn2C2CCCC2)N2CCc3ccccc3C2)cc1 (stereo not given)	-4%	-8%	-8%	-4%	6	?	-27%[11.4 µM]	-7%
O=C(COC(=O)c1cc([N+](=O)[O-])ccc1NCCO)Nc1ccc2c(c1)OCO2	-1%	-3%	-4%	16%	-2	14%[57.1 µM]	16%	9%[57.1 µM]
N#CCCN(CCC#N)C(=O)c1ccc2c(c1)OCO2	2%	0%	1%	3%	1	10%	-25%	1%
COC(=O)CCN(C(=O)C12CC3CC(CC(C3)C1)C2)c1ccccn1	-6%	3%	2%	12%	-8	4%	38%	2%
O=C(CSc1nc(O)cc(=O)[nH]1)N1c2ccccc2CCc2ccccc21	5%	1%	1%	1%	-5	5%	-18%	5%
CCOC(=O)c1nc2nc(-c3cccs3)cc(C(F)(F)F)n2n1	-3%	-1%	1%	-1%	-10	-21%	19%	362%[activator]
Cc1ccc(Cl)cc1NC(=O)Nc1nnc(N(C)Cc2ccccc2)s1	-26%	-2%	-6%	9%	-8	3%	4%	-3%
Cc1c(N=C2N=C(NC(=O)Nc3ccc(Cl)cc3)c3ccccc32)c(=O)n(-c2ccccc2)n1C	?	-2%	2%	-3%	-4	22%[57.1 µM]	8%	7%[57.1 µM]
CCCCN(C)CCNC(=O)c1cc(-c2ccc(Cl)s2)nc2ccccc12	-12%	-1%	4%	-11%	-4	18%	7%	47%[activator]
O=C(NCc1ccc2c(c1)OCO2)c1cccc(N2CCCC2=O)c1	-3%	-2%	1%	3%	-1	9%[57.1 µM]	-28%	6%[57.1 µM]
COc1cccc(/C=C/C(=O)OCC(=O)N2CCN(S(=O)(=O)c3ccc(Cl)cc3)CC2)c1	2%	-5%	1%	2%	-1	5%	-28%	30%
N#Cc1ccc(/C=N/NC(=O)c2cc(-c3cccs3)nc3ccccc23)cc1	-19%	0%	?	7%	-3	34%	-22%	45%[activator]
Cc1nc(-c2ccc(NC(=O)c3ccc(Br)o3)cc2)cs1	-1%	-5%	2%	-2%	-8	-2%[57.1 µM]	12%	-7%[57.1 µM]
Cc1ccnc(NC(=O)c2cccc(NS(=O)(=O)c3ccccc3C)c2)c1	6%	-1%	-1%	-7%	-7	16%[57.1 µM]	?	-10%
S=c1[nH]nc(-c2ccccc2Cl)n1Cc1ccccc1	-4%	-2%	0%	7%	-8	4%[57.1 µM]	-28%	6%[57.1 µM]
CN(Cc1ccccc1)C(=O)CCS(=O)(=O)c1cc2c(cc1Cl)NC(=O)CO2	-5%	-4%	4%	7%	-3	8%[57.1 µM]	0%	5%[57.1 µM]
COc1ccc(CNc2cc(NCCCO)c([N+](=O)[O-])c3nonc23)cc1	3%	-4%	1%	7%	6	?	1%	-11%
CCCCOc1ccc2c(c1)/C(=C(\C(Cl)=C(Cl)Cl)[N+](=O)[O-])N2	22µM*	-3%	?	-5%	-3	12%[57.1 µM]	-3%	2%[57.1 µM]
Cn1c(=O)c2c(nc(CN3CCc4ccccc4C3)n2Cc2ccc(Cl)cc2)n(C)c1=O	-8%	1%	-2%	3%	4	6%	-1%	5%
Cc1nc(Cl)c2c(n1)NC1=C(O2)C(=O)CCC1	-1%	-3%	-5%	4%	-3	5%[57.1 µM]	8%	8%[57.1 µM]
CC1(C)CC(=O)C(=C2SCCCS2)C(=O)C1	-10%	-1%	0%	-3%	-2	-5%	1%	-8%
CC(=O)Cc1nsc(NC(=O)c2ccc(COc3ccccc3Cl)o2)n1	5%	-3%	-7%	0%	-1	6%	1%	-3%
OC(CN1CCN(c2ccccn2)CC1)Cn1c2ccc(Cl)cc2c2cc(Cl)ccc21 (stereo not given)	8%	-6%	1%	0%	0	?	5%[11.4 µM]	-11%
Oc1ccccc1-c1nc(/C=C/c2ccccc2Cl)no1	3%	-4%	-5%	12%	4	25%	24%	49%[activator]
CC(=O)Nc1cc(-c2ccc(Cl)cc2)nn1-c1ccccc1	9%	3%	1%	2%	-1	-9%	3%	1%
CC(=O)Nc1nc2n(n1)C(c1ccc(F)cc1)C=C(c1ccc(Cl)cc1)N2 (stereo not given)	4%	3%	-4%	5%	-1	1%	-23%	-7%
N#Cc1c(N)n(CCc2ccc(F)cc2)c2nc3ccccc3nc12	-2%	2%	-5%	3%	13	-5%	-12%	99%[activator]
CC1=N/C(=C\c2ccc(OC(C)C)cc2)C(=O)N1c1ccc(C(=O)O)cc1	0%	-5%	-8%	-12%	-4	-8%	15%[11.4 µM]	-10%
CN(Cc1nc2ccc(F)cc2[nH]1)Cc1c(C(=O)N(C)C)nc2ccc(Cl)cn12	14%	-2%	0%	-8%	-3	6%	9%	-3%
Cn1c(=O)c2c(nc(N3CCc4ccccc4C3)n2C)n(C)c1=O	-4%	-1%	2%	10%	2	10%	-8%	6%
CC1CC1C(=O)OCC(=O)NC(=O)NCc1ccco1 (stereo not given)	-7%	-3%	1%	1%	2	-12%	9%	-1%
Cc1[nH]c(=O)[nH]c(=O)c1S(=O)(=O)NCCOC12CC3CC(CC(C3)C1)C2	-4%	-4%	1%	2%	-6	13%	9%	9%[0.457 µM]
Cc1ccc(CCNC(=O)c2c(C)oc3ncnc(N4CCOCC4)c23)cc1	-1%	-4%	6%	25%	0	-10%	-8%	-6%
CCC(Cn1nnc2ccccc2c1=O)NC(=O)Nc1cc(C)cc(C)c1 (stereo not given)	4%	-2%	-1%	-10%	-2	-8%	-14%	-7%
CN1CCCN=C1/C=C/c1cccs1	-6%	-6%	-1%	9%	-12	14%	-5%	4%
C=CCN(c1ccccc1)S(=O)(=O)c1cc2c(cc1C)NC(=O)CO2	1%	-1%	-1%	-5%	-3	26%	18%	0%
COc1cc(Br)c(CC(=O)NC2CC2)cc1OC	-37%	-4%	-2%	-1%	-8	20%[57.1 µM]	-1%	9%[57.1 µM]
Cc1ccc(N2C(=O)c3sc4nnc(C)c(=O)n4c3C2=O)cc1	1%	-5%	3%	1%	-5	12%	1%	5%[57.1 µM]
Cn1c(=O)c2c(nc(N3CCc4ccccc4C3)n2Cc2ccc(Br)cc2)n(C)c1=O	4%	-1%	-2%	-3%	-3	14%[57.1 µM]	-7%	9%[57.1 µM]

High-throughput results from PubChem BioAssay.

Only part of the results is shown (hit frequency here may not be typical).
